# Compound activity from PubChem.
# miR-21 FLuc – qHTS Assay for Modulators of miRNAs and/orActivators of miR-21 | Potency, µM (doses to about 38.3 µM), without a hit: at the top dose reporter change, positive = more light | HeLa miR-21 FLuc reporter, luciferase, 48 h | 340,000 tested, under 10 active; active = well fitted rising curve with a large enough effect; inconclusive = small, poorly fitted or top-dose-only effect; inactive = no such curve, though single readings can be large or run the other way;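 further: % of control where 0% means no effect; miR-21 action dims this reporter so a rising signal means less miR-21 action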
#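 HeLa cells stably expressing CMV-driven firefly luciferase with a downstream miR-21 binding sequence, endogenously expressing miR-21, were treated with titrations (up to about 40uM final) for 48 hours at 37 degree Celsius. Luciferase luminescence was read after lysis.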
# Active calls of the source: *; ? = inconclusive; [ ] = another dose, or the depositor's remark.
SMILES,miR-21 FLuc
Cc1ccc(OC(=O)CSc2nnc(CNC(=O)c3ccccc3)o2)cc1,0%
Cc1[nH]c2ccccc2c1C(c1ccccc1)c1cccs1 (centres undefined),2%
CCOc1ccc(S(=O)(=O)c2c(C(=O)c3ccc(C)c(C)c3)cnc3ccccc23)cc1,-1%
Cc1ccc(CCNC(=O)c2c3c(nc4ccccc24)C(=O)N(C2CCCCC2)C3)cc1,4%
CCC(=O)N1c2ccccc2CC1C(=O)NCCc1ccc(Cl)cc1 (centres undefined),-3%
COc1ccc(Cc2nc3ccc(C(=O)NCCCN4CCN(C)CC4)cc3o2)cc1,5%
CCOCCCNc1ncnc2onc(C)c12,0%
CCc1ccc(-n2c(=O)c3cccnc3n2CC(=O)NCc2ccccc2)cc1,0%
Cc1cc(OC(C)C(=O)N2CCN(CCc3ccccn3)CC2)ccc1Cl (centres undefined),-8%
Cc1ccc2oc(=O)n(CCCOc3ccc(Cl)cc3)c2c1,-12%
COc1cccc(CNC(=O)C2CCCN(c3nc4ccccc4n4cccc34)C2)c1 (centres undefined),-4%
Cc1ccc2oc(C(=O)Nc3sc4c(c3C(=O)NCC3CCCO3)CCC4)cc(=O)c2c1 (centres undefined),0%
CCCc1ccc(OCC(=O)Nc2scc(-c3cccs3)c2C(=O)OC)cc1,4%
CCN(CC)C(=O)Nc1ccc2c(c1)N(Cc1ccccc1)C(=O)c1ccccc1S2,-15%
COc1ccccc1NC(=O)Cn1c(=O)n(Cc2nc(C)no2)c(=O)c2cc3c(cc21)OCO3,2%
O=C(CNC(=O)c1ccccc1Cl)OCc1cc(=O)n2ccsc2n1,-3%
COc1ccc(C(=O)Nc2nnc(SCc3cc(=O)n4cc(Cl)ccc4n3)s2)cc1,-3%
Cc1ccc(CNC(=O)c2ccc3c(c2)CCN3S(=O)(=O)c2ccc(Br)cc2)cc1,8%
Cc1cccc(NS(=O)(=O)c2ccc3c(c2)CCN3C(=O)C2CC2)c1C,9%
Cc1nn(-c2ccc(N3CCCC3)nn2)c(C)c1CCC(=O)NCc1ccc(F)cc1,-10%
Cc1oc2ncnc(N3CCCCC3)c2c1C(=O)N1CCN(c2cccc(C(F)(F)F)c2)CC1,9%
COc1cccc2cc(-c3nc4sc(C(=O)Nc5ccc(F)cc5F)c(C)c4c(=O)[nH]3)c(=O)oc12,0%
Cc1cccc(CCNC(=O)CN(c2ccc(C(C)C)cc2)S(=O)(=O)c2c(C)nn(C)c2C)c1,0%
CCOc1ccc(NC(=O)CSc2nc3c([nH]c4ccccc43)c(=O)n2-c2cc(C)cc(C)c2)cc1,9%
CCOc1ccc(C(=O)Nc2cccc(-c3nc4cccnc4s3)c2C)cc1OCC,9%
CCCS(=O)(=O)c1c(S(=O)(=O)CCC)c2cc(C(C)(C)C)ccn2c1C(=O)c1ccc(C)cc1,-5%
CCCn1c(=N)c(C(=O)NCc2cccnc2)cc2c(=O)n3ccccc3nc21,0%
COc1ccc(-n2cc(C(=O)NCc3ccccc3)c3ccccc3c2=O)cc1,-1%
COc1ccc(C)cc1Nc1nc2c(S(=O)(=O)c3cccc(Cl)c3)nnn2c2ccsc12,0%
COCCNC(=O)c1ccc2nc(CCc3ccccc3)oc2c1,-5%
Cc1ccc(OCCSc2nc3ccccc3n2CC(=O)N2CCOCC2)cc1,?
Cc1nn(S(=O)(=O)c2ccc(Cl)cc2)c(C)c1S(=O)(=O)N1CCCCCC1,1%
CCOC(=O)c1cnc2c(OC)cccc2c1N1CCN(c2ccccc2F)CC1,?
COc1cc2nc(SCC(=O)Nc3cccc(C)c3)n3nc(CCn4c(C)nc5ccccc54)nc3c2cc1OC,0%
Cc1cccc(NC(=O)c2oc3ccccc3c2NC(=O)c2cc(=O)c3ccccc3o2)c1,-2%
Cc1nn(-c2ccc(F)cc2)c(-n2cccc2)c1C(=O)NCCCN1CCN(c2ccccc2F)CC1,5%
COc1ccccc1CNc1nc2ccc(C)cc2n2nnnc12,-6%
COc1ccc(NC(=O)CSc2nnc(-c3ccncc3)n2-c2ccccc2)cc1,4%
CS(=O)(=O)N(CC(=O)NCCc1ccccc1)c1cc(C(F)(F)F)ccc1Cl,10%
COc1cc(NC(=O)C2CCN(S(=O)(=O)c3c(C)noc3/C=C/c3cccs3)CC2)cc(OC)c1,8%

# Quoted from the results shown for reference:
SMILES,miR-21 FLuc
CCCS(=O)(=O)c1c(S(=O)(=O)CCC)c2cc(C(C)(C)C)ccn2c1C(=O)c1ccc(C)cc1,-5%
CCCn1c(=N)c(C(=O)NCc2cccnc2)cc2c(=O)n3ccccc3nc21,0%
COc1ccc(-n2cc(C(=O)NCc3ccccc3)c3ccccc3c2=O)cc1,-1%
COc1ccc(C)cc1Nc1nc2c(S(=O)(=O)c3cccc(Cl)c3)nnn2c2ccsc12,0%
COCCNC(=O)c1ccc2nc(CCc3ccccc3)oc2c1,-5%
Cc1ccc(OCCSc2nc3ccccc3n2CC(=O)N2CCOCC2)cc1,?
Cc1nn(S(=O)(=O)c2ccc(Cl)cc2)c(C)c1S(=O)(=O)N1CCCCCC1,1%
CCOC(=O)c1cnc2c(OC)cccc2c1N1CCN(c2ccccc2F)CC1,?
COc1cc2nc(SCC(=O)Nc3cccc(C)c3)n3nc(CCn4c(C)nc5ccccc54)nc3c2cc1OC,0%
Cc1cccc(NC(=O)c2oc3ccccc3c2NC(=O)c2cc(=O)c3ccccc3o2)c1,-2%
Cc1nn(-c2ccc(F)cc2)c(-n2cccc2)c1C(=O)NCCCN1CCN(c2ccccc2F)CC1,5%
COc1ccccc1CNc1nc2ccc(C)cc2n2nnnc12,-6%
COc1ccc(NC(=O)CSc2nnc(-c3ccncc3)n2-c2ccccc2)cc1,4%
CS(=O)(=O)N(CC(=O)NCCc1ccccc1)c1cc(C(F)(F)F)ccc1Cl,10%
COc1cc(NC(=O)C2CCN(S(=O)(=O)c3c(C)noc3/C=C/c3cccs3)CC2)cc(OC)c1,8%

# Carrying on:
SMILES,miR-21 FLuc
COc1cc(NC(=O)Cn2c(=O)nc(-c3ccccc3F)c3cc(Cl)ccc32)cc(OC)c1,19%
CCCCn1c(=O)c2oc3ccccc3c2n(CC(=O)Nc2ccccc2OC)c1=O,-5%
Cc1cc(C)cc(NC(=O)C(=O)NCC(c2cccnc2)N2CCOCC2)c1 (centres undefined),-2%
CCOc1ccc(CNC(=O)c2ccc(-c3nc(CS(=O)(=O)c4ccccc4)c(C)o3)cc2)cc1,-22%
Cc1cn2c(=O)cc(COC(=O)COc3ccc(F)cc3)nc2s1,-1%
COc1ccc(N(CC(=O)N2CCN(c3ccccc3)CC2)S(=O)(=O)c2c(C)nn(C)c2C)cc1,-1%
CCN(CC)c1ccc(C(=O)NCc2ccc3c(c2)CCN3C(C)=O)cc1,-14%
Cc1ccc(-c2nc(CCNC(=O)C(=O)Nc3ccc(C)c(C)c3)cs2)cc1,-2%
O=C(CCCCn1c(=O)c2ccccc2n(Cc2ccccc2Cl)c1=O)NCc1ccc2c(c1)OCO2,2%
CCCN(CCC)CCNC(=O)c1ccc2c(c1)NC(=O)C(CS(=O)(=O)Cc1cccc(Br)c1)N2 (centres undefined),0%
COc1ccc(-c2onc(C)c2C)cc1S(=O)(=O)NCc1ccco1,23%
COc1ccccc1CNC(=O)c1ccc(Nc2nc3ccccc3n3nnnc23)cc1,-9%
CCOC(=O)c1sc(NC(=O)COc2ccccc2Cl)c(C(=O)OCC)c1C,-59%
COc1cc(C(=O)NCc2nnnn2-c2ccc(C)c(C)c2)cc(OC)c1OC,4%
CCCS(=O)(=O)N1CC(=O)N(c2cccc(Cl)c2C)C(C)(C(=O)NC2CCCC2)C1 (centres undefined),-6%
Cc1ccc(C)c(NC(=O)CSc2ncc3c(n2)-c2ccccc2N(Cc2ccccc2C)S3(=O)=O)c1,4%
COc1cc2c(cc1OC)C1O[C@](CCCCN3C(=O)c4ccccc4C3=O)(C2)OC2=C1C(=O)OC1(CCCCC1)C2,-3%[7.66 µM]
Cc1cccc(C(c2sc3nc(-c4ccco4)nn3c2O)N2CCN(Cc3ccccc3)CC2)c1 (centres undefined),-11%
CN(C)c1ccc(CNC(=O)Cn2c(=O)oc3cc(S(=O)(=O)N4CCCCCC4)ccc32)cc1,13%
CCc1nn(CCCC(=O)N2CCN(c3cc(Cl)ccc3C)CC2)c(=O)c2cc3occc3n12,-3%
Cc1cccc(Nc2nnc(-n3nc(C)cc3C)c3ccccc23)c1,-59%
Cc1ccc(S(=O)(=O)c2cnc(SCC(=O)Nc3ccc4c(c3)OCCO4)[nH]c2=O)cc1Cl,0%
O=C(Nc1nnc(C2CC(=O)N(c3ccc(Cl)cc3)C2)s1)c1ccco1 (centres undefined),-1%
CCn1c(=O)cc(SCC(=O)Nc2cc(Cl)ccc2OC)c2ccccc21,8%
O=C(Nc1ccc(F)cc1F)c1ccc(-n2cnnc2)cc1,-5%
Cc1ccc(NC(=O)CN2C(=O)COc3ccc(S(=O)(=O)N4CCCCC4)cc32)cc1Cl,9%
COc1ccc2oc(-c3cccc(NC(=O)c4ccc(C#N)cc4F)c3)nc2c1,-12%
COc1ccccc1N1CCN(c2ncnc3c2nc2n3CCCC2)CC1,10%
COc1ccc(N2CCN(S(=O)(=O)c3ccc(-c4coc(C)n4)cc3)CC2)cc1,-3%
COc1ccccc1NC(=O)Cn1c(=O)n(-c2ccc(C)cc2)c(=O)c2ccc(C(=O)NCc3ccco3)cc21,0%
Cc1ccc(C)c(CN2C(=O)c3ccccc3S(=O)c3ccc(C(=O)NCCC4=CCCCC4)cc32)c1 (centres undefined),13%
CN1CCc2c(sc3c2C(=O)NC(c2ccc(C(C)(C)C)cc2)N3)C1 (centres undefined),-12%
Cc1ccc2nc(-c3ccc(Cl)c(NC(=O)COc4ccc(C(C)C)cc4)c3)oc2c1,-58%
COc1ccc(NC(=O)Cn2c(=O)n(Cc3ccco3)c(=O)c3oc4ccccc4c32)cc1Cl,12%
COc1ccc(CNC(=O)Cc2c(C)c3cc4c(C)coc4cc3oc2=O)cc1,-1%
Cc1cccc(-c2noc(CSc3nc(-c4ccc(F)cc4)cc(=O)[nH]3)n2)c1,-10%
Cc1ccc(NC(=O)Nc2ccc3snnc3c2)cc1C,18%
O=C(NCc1ccc(Cl)cc1)c1cnc2sc(N3CCOCC3)nn2c1=O,-7%
O=C(c1ccccc1)N1CCCCC1CCN1CCCCC1 (centres undefined),11%
COc1ccccc1-c1cc(C(F)(F)F)nc(S(=O)(=O)CCCC(=O)Nc2cc(C)ccc2O)n1,?
Cc1nn(C)c2c1c(C(F)(F)F)cc(=O)n2CC(=O)N1CCC(C)CC1,-4%
Cc1ccc(Cn2c(C(=O)O)c(CNC3CCCCCC3)c3ccc(C)cc32)cc1,3%
Cn1c(=O)c2c(-c3ccccc3Br)n(CCc3ccccc3)cc2n(C)c1=O,4%
Cn1c(=O)c2sccc2n2c(CCC(=O)NCc3ccccc3Cl)nnc12,6%
O=C(CN1C(=O)CCn2nc(-c3ccccc3)cc21)NCc1ccc(F)cc1,-1%
CSc1ncc2c(n1)-c1ccccc1N(Cc1ccc(F)cc1)S2(=O)=O,-2%
Cc1ccc(-c2csc(=Nc3ccccc3)n2Cc2ccc3c(c2)OCO3)cc1C,-40%
COC(=O)c1ccccc1NC(=O)Cn1c(=O)cc(-c2ccccc2)c2c(C)nn(C)c21,-1%
CCOc1ccc(NC(=O)CC2C(=O)N(c3ccccc3)C(=O)N2C2CCCCC2)cc1 (centres undefined),2%
Cc1cc(NC(=O)CSc2nc3c([nH]c4ccccc43)c(=O)n2-c2ccc(Cl)cc2)no1,-13%
Cc1ccc(N2CCN(C(=O)Nc3cn(CC(C)C)c(=O)c4ccccc34)CC2)c(C)c1,?
Cc1ccc(NC(=O)Cn2nnc(-c3nc(-c4ccc(Cl)cc4)no3)c2N)cc1C,-1%
COC(=O)C1=C(C)N=C2SCCC(=O)N2C1c1ccc(OCc2ccccc2)c(OC)c1 (centres undefined),-12%
COc1cc(NC(=O)c2c(C)oc3c2C2=NCCN2C=N3)cc(OC)c1OC,-6%
CCN1C(C(=O)c2ccccc2)=C(OC(=O)c2ccccc2OC)c2ccccc2S1(=O)=O,?
CCc1nn(CC(=O)NCCCOC)c(=O)c2cc3ccccc3n12,5%
O=C(C1CCCCC1)N(Cc1cccnc1)c1nc2ccc(Cl)cc2s1,2%
CCOC(=O)CNC(c1ccccc1)c1cc(Br)ccc1NC(=O)c1ccc(Cl)cc1 (centres undefined),0%
CCCNC(=O)c1ccc(-n2c(-c3ccccc3)cc3c2CCCCC3)cc1,-1%
CCN(CC)C(=O)CSc1nc(-c2ccc(C)cc2)nc2c1Cc1c(CO)cnc(C)c1O2,5%
# Additional compounds:
SMILES,miR-21 FLuc
CC(=O)c1c(C)oc2c1cc(NS(=O)(=O)c1ccc(Cl)c(C)c1)c1ccccc12,7%
COc1ccc(OC)c(NC(=O)CN2CCCN(Cc3ccccc3Cl)S2(=O)=O)c1,-7%
COc1ccc(CNC(=O)c2ccc(NC(=O)N3CCSc4ccccc43)cc2)cc1,-2%
COc1ccc(-n2c(=O)c3c4c(sc3n(CC(=O)N3CCCCC3C)c2=O)CCC4)c(OC)c1 (centres undefined),-3%
COc1ccc(OCC(=O)OCc2cc(=O)n3nc(C4CCCCC4)sc3n2)cc1,-10%
CCOc1ccc(NC(=O)c2cn(C)c(=O)c3cc(OC)c(OC)cc23)cc1,1%
CC(C)Cn1c(CN2CCN(c3cccc(Cl)c3)CC2)nc2c1c(=O)[nH]c(=O)n2C,8%
O=C(Nc1ccc(N2CCC(N3CCCCC3)CC2)c(C(=O)O)c1)c1ccc(Br)cc1,-16%
CCCS(=O)(=O)N1CC(=O)N(c2cc(C)ccc2C)C(C)(C(=O)NC2CCCCCC2)C1 (centres undefined),0%
O=C(NCC(c1cccnc1)N1CCc2ccccc2C1)c1ccc(F)c(F)c1 (centres undefined),-18%
CCCN(CCC)C(=O)Cn1c(=O)n(-c2ccc(Cl)cc2)c(=O)c2c3c(sc21)CCCCC3,0%
Cc1c(C(=O)Nc2ccc(C(C)C)cc2)sc2nc[nH]c(=O)c12,-53%

# The list is partial; rates above refer to the full screens.
